NPYLR7 agonist = agonists of mosquito NPYLR7 receptor, primary screen, cell-based, Aedes aegypti, calcium fluorescence, mosquito biting behavior | 0.15% of 270,000 active | activation, % at 10 µM | AID 1259423, 2018 | HEK293T NPYLR7/Galpha15, GCaMP6s calcium fluorescence; in the data active means activation above about 40%;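 further: 0% = vehicle and 100% = reference agonist at the receptor; some compounds past the cut are filed as inactive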
NPYLR7 agonist max-min = further read-out of NPYLR7 agonist, marked with its call; activation, %; measured here: Max-Min RFU normalised activation; some inactives read as strong as hits;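 span of the calcium signal over five minutes; 0% = vehicle and 100% = native peptide agonist; compound fluorescence can raise it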
Starred values were filed as active, the others as inactive; & = joins results of further samples.

SMILES	NPYLR7 agonist	NPYLR7 agonist max-min
N#Cc1ccccc1NC(=O)Nc1c2ccccc2nc(=O)n1CCc1ccccc1	5	3
COc1ccc(-c2nn(-c3ccccc3)cc2C=C2C(=O)NC(=S)NC2=O)cc1[N+](=O)[O-]	2	-4
O=S(=O)(NC1CCCC1)c1ccc(S(=O)(=O)N2CCN(c3ncccn3)CC2)cc1	3	1
Cc1ccc(CNC(=O)CCc2nnc(CCc3c[nH]c4ccccc34)o2)o1	1	0
COc1ccccc1N1CCN(CCN2C(=O)CC3(CCCC3)CC2=O)CC1	7	-5
O=C1C(=Cc2ccc(N3CCCCC3)cc2)COc2ccccc21	2	1
O=S(=O)(Cc1sc2ccccc2c1Cl)c1nccn1C1CC1	5	2
Cc1c(S(=O)(=O)CCNC(=O)Nc2ccccc2C#N)c2ccccc2n1Cc1ccccc1	0	5
O=C(N1CCC(Cc2ccccc2)CC1)C(Cl)(Cl)Cl	4	15
CCC#CCN1CCc2c(cnn2-c2ccccn2)C1	-1	15
CS(=O)(=O)c1cccc(C(=O)Nc2ccccc2F)c1	-7	-9
COc1cccc(Oc2cnn(-c3ccccc3Cl)c(=O)c2Nc2cccc(C(=O)NC3CC3)c2)c1	0	3
COCCNC(=O)[C@@]1(OCc2ccc(F)cc2)CC(OCc2c(F)cccc2F)[C@@H]2OC(C)(C)O[C@@H]2C1 (some centres not stated)	4	16
C=CCn1c(=O)c(C(=O)Nc2nc(C)cs2)c(O)c2ccccc21	3	1
CC(=O)NC1=NC(=O)C(CC(=O)c2ccc(C)cc2)S1 (configuration not stated)	-15	-22
Cc1ccc(S(=O)(=O)N2CCCCC2)cc1-n1c(C)ccc1C	0	-2
CC(C)(C)C(=O)N1CCN(Cc2nnnn2-c2ccc(Cl)cc2)CC1	-5	-6
CCc1nc(-c2ccccc2)nc(N2CCN(C(=O)N(C)C)CC2)c1Cc1cccc(C)c1	7	10
c1ccc(C2CCC(NCc3cn[nH]c3-c3cccnc3)CC2)cc1 (configuration not stated)	9	5
CCOc1ccccc1N1CCN(C(=O)C2CCN(c3nc(Cc4ccc(F)cc4)ns3)CC2)CC1	-6	-1
CN(C)c1ccc(/C=C2N=C(/C=C\c3cccc([N+](=O)[O-])c3)OC/2=O)cc1	0	-4
O=C(Nc1cccc(-c2cc3ccccc3[nH]2)c1)C1CCCN(C(=O)c2ccccc2F)C1 (configuration not stated)	6&10	5&11
O=C(CSc1nnc(NC(=O)c2ccccc2C(F)(F)F)s1)Nc1nc2ccccc2s1	7	10
O=C(NCC1CC1)c1nn(-c2ccccc2F)c(=O)n(Cc2ccccc2F)c1=O	11	15
Cc1ccnc(NC(=O)C2CCN(Cn3c(=O)oc4ccccc43)CC2)c1	3	1
SMILES	NPYLR7 agonist	NPYLR7 agonist max-min
CCC(C)c1ccc(S(=O)(=O)N2CCN(C(=O)NC)CC2)cc1 (configuration not stated)	7	6
Cc1ccc(Cl)c(Nc2ccccc2C(=O)O)c1Cl	-14&1&-7&-3&-1	-18&-6&-11&-6&7
COc1ccc(NC(=O)C=Cc2ccco2)c(OC)c1	5	3
Cc1noc(C)c1CNC(=O)c1ccc(N(C)c2ccccc2)nc1	1	8
C(=C\c1ccccn1)/c1ccc(-n2ccnc2C2CC2)cc1	2	-13
Cc1ccc(-c2cc(C(=O)N3CCC(C)CC3)n3nc(C(C)(C)C)cc3n2)cc1	-2	-2
COc1cc2ncnc(Nc3ccc(Cl)cc3F)c2cc1OC	18	4
Cc1ccc(F)c(S(=O)(=O)NC(=O)C2(C)CCN2C(=O)C2(c3ccc(Cl)cc3)CCC2)c1 (configuration not stated)	-1	0
Cc1c(C)n2c3c(=O)n(Cc4ccccc4Cl)c(=O)n(C)c3nc2n1CCN1CCOCC1	3	2
COC(=O)C1=C(C)N(C)C(C)=C(C(=O)OC)C1c1ccc([N+](=O)[O-])cc1	1	1
O[C@@H]1CN(C/C=C/c2ccco2)CC[C@H]1N1CCN(c2ccccn2)CC1	7	11
CC(C)CCNC(=O)C1CCN(C(=O)C2CCCN(Cc3cccc(F)c3)C2)CC1 (configuration not stated)	9	2
COc1ccc(CCN2CCCC(CN(C)Cc3cccc4cccnc34)C2)cc1 (configuration not stated)	3	4
CCCc1[nH]n(-c2ccc(Cl)c(Cl)c2)c(=O)c1C1=C([n+]2ccccc2)C(=O)N(CC2CCCO2)C1=O (configuration not stated)	6	10
COc1ccc(CCNc2nc(-c3ccccc3C(F)(F)F)nc3ccccc23)cc1	5	12
Cc1nc(SCc2ccc(F)cc2)c([N+](=O)[O-])[nH]1	0	-2
O=C1CCCN=C(C2(c3ccc(F)cc3)CCC2)N1	8	4
COc1cccc(-n2nnc(C(=O)Nc3cc(C)on3)c2C)c1	-1	-5
CCC(CC)c1cc(C(=O)NCc2csc(=O)[nH]2)on1	-1	-2
CCN(CC)c1ccc2cc(C(N)=O)c(=Nc3ccc(F)cc3)oc2c1	9	9
O=c1c(-c2cc3ccccc3o2)[n+]([O-])c2ccccc2n1OCc1ccccn1	24	11
O=C(Nc1ccc2c(c1)CN(C(=O)CSc1ccccn1)CC2)C1CCCO1 (configuration not stated)	-4	-8
Cc1oc(-c2cccc(NC(=O)c3ccccn3)c2)nc1CNC(=O)Cc1ccc(F)cc1	22	16
COc1cc(N2CCCCC2)ccc1/C=C(/C#N)c1ccc(C(=O)O)cc1	15	13
CC(C)(C)c1ccc(-c2nnc(SCc3nc(N)nc(N)n3)n2C2CCCC2)cc1	2	15
SMILES	NPYLR7 agonist	NPYLR7 agonist max-min
CC(C)CN1CCOC(CNC(=O)CN2CC(C)C(=O)Nc3ccccc32)C1 (configuration not stated)	4	5
CCOCCCn1c(=NC(C)=O)c(C#N)cc2c(=O)n3cccc(C)c3nc21	1	0
Cn1cc(-c2ccc3c(c2)N(Cc2ccc(C(F)(F)F)cc2)C(=O)COC3)cn1	7	5
Nc1nc(SCc2cc([N+](=O)[O-])cc3c2OCOC3)nc(-c2ccncc2)n1	1	8
NC1=NN(c2ccccc2)CC1	4	1
Cc1ccsc1/C=C1\N=C(c2ccccc2Br)OC1=O	5	12
COc1cc2nc(/C(Cl)=C/c3cccnc3)[nH]c(=O)c2cc1OC	8	7
CC(C)NS(=O)(=O)c1cccc2nsnc12	7&11	3&15
CC1(O)CCOC(=O)C1 (configuration not stated)	-1	-2
COc1nc(-c2ccccc2C)n(-c2cccc(NC(=O)c3ccc(C)cc3)c2)n1	-3	8
CCCCN1CCN(C(=O)c2ccc(CSc3ncn[nH]3)o2)CC1=O	5	3
Cc1ccc(C)c(C(C)NC(=O)c2ccc(-n3ccnc3)nn2)c1 (configuration not stated)	7	4
C[C@@H]1[C@H]2C[C@@H](C[C@H]1NC(=O)C1CCCCC1C(=O)N1CCc3c([nH]c4ccccc34)C1)C2(C)C (some centres not stated)	-9	-15
CCC(C)OC(=O)C1=C(C)NC2(O)c3ccccc3C(=O)C12O (configuration not stated)	8	2
NC(=O)c1ccc(N=Nc2c(-c3ccc([N+](=O)[O-])cc3)[nH]n(-c3ccccc3)c2=O)cc1	-2	-7
Cc1cc(C)c2ncn(CCC(C)O)c(=O)c2c1 (configuration not stated)	7	8
CC1=CC[C@@H]2CN(C(=O)CN3CCN(c4ncccn4)CC3)C[C@@H]2C1	5	5
Cc1nn(C)c(C)c1-c1cc(C(=O)N2CCC(O)(CN(C)C)C2)n(C)n1 (configuration not stated)	3	3
O=C(Cn1cnc([N+](=O)[O-])n1)N1CCCCCC1	-13	-20
c1csc(-c2noc(CN3CCC(c4ccncc4)CC3)n2)c1	21	10
Cc1ccc(NC(=O)C2(C)CCN2Cc2ccccc2Cl)cc1O (configuration not stated)	10	3
CC1(C)CC(n2c(NCCO)nc3c(c2=O)C2(CCCC2)Cc2ccccc2-3)CCO1 (configuration not stated)	0	-1
CCOC(=O)C1CCN(C2CC(=O)N(c3ccc(C)cc3)C2=O)CC1 (configuration not stated)	-3	-12
O=C1CCC(CNc2ncnc3sc(-c4ccccc4)cc23)N1 (configuration not stated)	9	7
Cc1cc2nn(CN3CCN(c4ncccn4)CC3)c(=S)n2c2ccccc12	-7	-14
SMILES	NPYLR7 agonist	NPYLR7 agonist max-min
C=CCNC(=S)N=C1N=C2C=CC(Cl)=CN2Cc2ccccc21	13	13
CN(C)c1ccc(NC(=O)C2CCN(S(=O)(=O)c3ccccc3C#N)CC2)cn1	-1	-1
O=C(CN1CCN(S(=O)(=O)c2ccccc2C(F)(F)F)CC1)NC1CCCCC1	11	7
CCCC(=O)Nc1c(-c2cccc(Cl)c2)nc2cc(C)ccn12	-14	-6
CCCCOc1ccc(C2=N/C(=C\c3ccc(OC)c(OC(C)=O)c3)C(=O)O2)cc1	-2	-7
COC(=O)CCC(=O)NNC(=O)c1ccccc1I	-10	-14
CSc1ccccc1NC(=O)C1(C)CCN1C(=O)Cc1ccsc1 (configuration not stated)	0	-1
Brc1ccccc1-c1csc(=Nc2cccnc2)n1C1CC1	9	1
CC(C)NC(=O)NCC1CCN(Cc2nc(C(C)C)cs2)C1 (configuration not stated)	0	1
O=C(C=C(O)c1ccccc1)c1ccccc1	1	5
COc1ccc(NC(=O)N2CCc3nc(C)nc(N4CCC(C)CC4)c3C2)cc1	-4	4
N[C@H](Cc1c[nH]c2ccccc12)C(=O)Nc1cnc2n1CCCC2	5	3
Cc1ccn2cc(-c3ccc(NS(=O)(=O)c4cc(C)c(C)cc4C)cc3)nc2n1	7	5
CC1=Nc2cc(Cl)ccc2Oc2ccccc21	7	8
CCOC(=O)c1ccc(NC(=O)N2CCC3(CC2)OCCc2c3n(C)c3ccccc23)cc1	19	17
C#CCOCC(O)CN(Cc1c(-c2ccccc2F)noc1N1CCOCC1)CC1CCCO1 (configuration not stated)	0	3
COc1ccc(-c2cnc(-c3cccc(CNC(=O)c4cc(Cl)cc(Cl)c4)c3)[nH]2)cc1	36	28
CCCCOC(=O)c1cc(-c2ccc(/C=C3\C(=O)N(c4cccc(C(=O)O)c4)N=C3C)o2)ccc1Cl	-1	6
CCOC(=O)N/N=C1/CSCC1C(=O)OC (configuration not stated)	-1	1
COc1ccccc1C1=NN(C(=O)CN2CCCCC2C)C(c2ccccc2OC)C1 (configuration not stated)	0	4
CC1CCCCN1Cc1nc2c(c(=O)n(C)c(=O)n2C)n1Cc1ccccc1 (configuration not stated)	0	-3
COc1ncc(CN2CC[C@@H](c3ccc4ccccc4c3)[C@H](O)C2)cn1	2	0
O=C(Nc1ccc(-c2nc3ccccc3o2)cc1)C1CCN(C(=O)C2CC23CCCC3)CC1 (configuration not stated)	5	2
CC(C)(C)OC(=O)c1cccc(NC2Cc3ccccc3C2)c1	5	2
CC(C)C1CN(C(=O)c2cnn3ccn(C)c23)CCCN1CC1CC1 (configuration not stated)	27	14

Another view of part of the listing above:
Order of results: NPYLR7 agonist | NPYLR7 agonist max-min
O=C1CCCN=C(C2(c3ccc(F)cc3)CCC2)N1
  8 | 4
COc1cccc(-n2nnc(C(=O)Nc3cc(C)on3)c2C)c1
  -1 | -5
CCC(CC)c1cc(C(=O)NCc2csc(=O)[nH]2)on1
  -1 | -2
CCN(CC)c1ccc2cc(C(N)=O)c(=Nc3ccc(F)cc3)oc2c1
  9 | 9
O=c1c(-c2cc3ccccc3o2)[n+]([O-])c2ccccc2n1OCc1ccccn1
  24 | 11
O=C(Nc1ccc2c(c1)CN(C(=O)CSc1ccccn1)CC2)C1CCCO1 (configuration not stated)
  -4 | -8
Cc1oc(-c2cccc(NC(=O)c3ccccn3)c2)nc1CNC(=O)Cc1ccc(F)cc1
  22 | 16
COc1cc(N2CCCCC2)ccc1/C=C(/C#N)c1ccc(C(=O)O)cc1
  15 | 13
CC(C)(C)c1ccc(-c2nnc(SCc3nc(N)nc(N)n3)n2C2CCCC2)cc1
  2 | 15
CC(C)CN1CCOC(CNC(=O)CN2CC(C)C(=O)Nc3ccccc32)C1 (configuration not stated)
  4 | 5
CCOCCCn1c(=NC(C)=O)c(C#N)cc2c(=O)n3cccc(C)c3nc21
  1 | 0
Cn1cc(-c2ccc3c(c2)N(Cc2ccc(C(F)(F)F)cc2)C(=O)COC3)cn1
  7 | 5
Nc1nc(SCc2cc([N+](=O)[O-])cc3c2OCOC3)nc(-c2ccncc2)n1
  1 | 8
NC1=NN(c2ccccc2)CC1
  4 | 1
Cc1ccsc1/C=C1\N=C(c2ccccc2Br)OC1=O
  5 | 12
COc1cc2nc(/C(Cl)=C/c3cccnc3)[nH]c(=O)c2cc1OC
  8 | 7
CC(C)NS(=O)(=O)c1cccc2nsnc12
  7&11 | 3&15
CC1(O)CCOC(=O)C1 (configuration not stated)
  -1 | -2
COc1nc(-c2ccccc2C)n(-c2cccc(NC(=O)c3ccc(C)cc3)c2)n1
  -3 | 8
CCCCN1CCN(C(=O)c2ccc(CSc3ncn[nH]3)o2)CC1=O
  5 | 3
Cc1ccc(C)c(C(C)NC(=O)c2ccc(-n3ccnc3)nn2)c1 (configuration not stated)
  7 | 4
C[C@@H]1[C@H]2C[C@@H](C[C@H]1NC(=O)C1CCCCC1C(=O)N1CCc3c([nH]c4ccccc34)C1)C2(C)C (some centres not stated)
  -9 | -15
CCC(C)OC(=O)C1=C(C)NC2(O)c3ccccc3C(=O)C12O (configuration not stated)
  8 | 2
NC(=O)c1ccc(N=Nc2c(-c3ccc([N+](=O)[O-])cc3)[nH]n(-c3ccccc3)c2=O)cc1
  -2 | -7

The list goes on.
SMILES	NPYLR7 agonist	NPYLR7 agonist max-min
Cn1c(C(=O)N2CCN(C(=O)c3ccco3)CC2)cc2c(=O)n3ccccc3nc21	3&0	2&-2
CC(=O)C1(O)COC(c2ccccc2)OC1 (configuration not stated)	-9	-9
NC(=O)c1ccc(CSCCCOc2ccccc2)cc1	1	0
CCc1nnc(-c2cc3ccccc3n2CC(=O)NCc2ccc(C)cc2)o1	-1	-2
O=C1CC(c2cccc(Cn3cccn3)c2)c2cc3cn[nH]c3cc2N1 (configuration not stated)	15	11
COc1ccc(-c2ccc(CCC(=O)NCCc3cccs3)n2-c2ccc(SC)cc2)cc1	3	0
CCOC(=O)C1(CCCc2ccccc2)CCN(C(=O)C2CC(C(C)C)=NO2)CC1 (configuration not stated)	6&12	4&12
CCN(C(=O)CNC(C)Cn1cccn1)C1=CCCCC1 (configuration not stated)	13	9

An excerpt; count on the stated rates, not on these rows.
